High-throughput results deposited in PubChem by several laboratories.
eIF4H FP inh – inhibitors of RNA binding by human eIF4H. Q15056. eIF4H fluorescence polarization binding assay. inhibition, % at 35 µM. hit rate 0.94% among 290,000. AID 2012;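 active means 50% or more with normal probe brightness, or confirmed in later tests; inconclusive means above 50% with abnormal brightness, or retests that disagree; inactive means below 50% or failed in later tests; about a fifth of its hits are not listed in these tables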;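 further: calls also rest on retests at 20 µM and on dose response follow-up; 0% = protein and probe with vehicle and 100% = probe without protein; strong numbers were not always called active; many hits fall short of the cut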
CSC inhib – cancer stem cell inhibition; AID 2717; hit rate 1.1% among 300,000; cancer stem cell-like cells viability, luminescence; inhibition, % at 7.5 µM;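 active means mean at 75% or more and at least half the replicates too; inconclusive means mean and replicates disagree; tested in HMLE shEcad cells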;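 further: 0% = median of negative and 100% = median of positive control wells; the first replicate is given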
Env fusion inh – inhibitors of HIV Env-mediated cell fusion | HeLa-JRFL Env/CEM21 cell fusion, luciferase | hit rate 1.1% among 360,000 | inhibition, % at 12.3 µM;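 active means mean replicate inhibition score of at least 50 and every replicate individually at or above 50; inconclusive means only one of the two criteria met; inactive means mean below 50 and not all replicates reaching 50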;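 further: 0% = plate neutral controls and 100% = maraviroc near 300 nM; one replicate is shown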
Rce1 inh – blocks yeast Ras-converting enzyme; Q03530; yeast membranes, quenched prenylated peptide cleavage fluorescence; calls only; hit rate 0.27% among 290,000; AID 2563;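 active means fall in fluorescence gain of 50% or more versus controls, with final raw signal at or below 3038400; inconclusive means same 50% fall but final raw signal above 3038400; inactive means fall in fluorescence gain under 50%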;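 further: plate controls were neutral control wells for no effect and wells lacking membranes for full effect; tested at 10 µM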
Target sequence (Q03530 whole entry, looked up): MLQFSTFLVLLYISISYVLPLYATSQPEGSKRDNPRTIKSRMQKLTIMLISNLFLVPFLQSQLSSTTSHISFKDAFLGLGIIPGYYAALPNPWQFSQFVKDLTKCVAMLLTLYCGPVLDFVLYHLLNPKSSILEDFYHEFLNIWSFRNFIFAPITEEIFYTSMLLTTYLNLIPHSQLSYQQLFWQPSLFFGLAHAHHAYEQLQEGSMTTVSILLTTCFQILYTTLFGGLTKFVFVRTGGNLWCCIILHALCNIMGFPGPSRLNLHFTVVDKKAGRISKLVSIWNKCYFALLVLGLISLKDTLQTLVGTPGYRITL
PABP FP inh – blocks human PABP binding to poly(A) RNA. fluorescence polarization. inhibition, % at 35 µM. hit rate 1% among 290,000. AID 2014;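 active means 50% or more with normal probe brightness, or confirmed in later tests; inconclusive means above 50% with abnormal brightness, or retests that disagree; inactive means below 50% or failed in later tests; about a fifth of its hits are not listed in these tables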;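 further: calls also rest on retests at 20 µM and on dose response follow-up; controls were probe without protein and protein plus probe with vehicle; some compounds called inactive have numbers as strong as hits; many hits fall short of the cut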
Yeast UUG start – yeast start codon fidelity modulation; activity score, % at 18.7 µM; S. cerevisiae UUG-firefly luciferase reporter, luminescence/redox ratio; AID 602363; hit rate 0.13% among 350,000;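 active means replicate mean at a twofold rise or more, about +100% in these data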;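 further: firefly luciferase made from a UUG start codon reports start codon fidelity; reporter light over untreated wells divided by growth signal over untreated wells; some hits fall short of that in this replicate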
MT1-MMP act inh – inhibitors of human MT1-MMP activation; hit rate 0.061% among 360,000; HT1080 RFP-PRO-GFP cells, GFP/RFP ratio fluorescence, overnight; percent of plate control window, DMSO zero; P50281; GFP/RFP ratio change, % at 20 µM; AID 651647;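 active means GFP/RFP ratio change of at least 30% with cell ATP level not reduced by more than half and red fluorescence within 50% of control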; further: strong numbers were not always called active
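Compound: 20 µM single dose, 1% DMSO / System: HT1080 RFP-PRO-GFP cells / Controls: DMSO and RFP-L50D-GFP cell wells / Read-out basis: GFP/RFP fluorescence ratio / Schedule: overnight compound exposure at 37 °C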
eIF4H FP inh retest – second read-out of eIF4H FP inh, no call of its own (marks repeat the call); inhibition, %; compound at 20 µM; confirmation average;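 mean of two retest wells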
PABP FP inh retest – further read-out of PABP FP inh, marked with its call; inhibition, %; compound at 20 µM; confirmation repeats;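 mean of two retest wells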
MT1-MMP act inh RFP – also measured in MT1-MMP act inh; calls as there; RFP signal change, %; measured here: RFP expression control read;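 0 = vehicle wells; hits needed this value within 50% of zero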
An asterisk follows results filed as active; i = inactive; ? = inconclusive; . = not tested or not shown; + = active, no number; & = joins results of further samples. Only part of the results is shown, so the mix of outcomes need not match the whole.

SMILES | eIF4H FP inh | CSC inhib | Env fusion inh | Rce1 inh | PABP FP inh | Yeast UUG start | MT1-MMP act inh | MT1-MMP act inh RFP | others
CCOC(=O)C1=CN(Cc2cccc(-c3ccc(Cl)nc3)c2)S(=O)(=O)N(C)C1C (stereo unspecified) | . | . | -10 | . | . | 2 | -1 | -9
Cc1noc(C)c1NC(=O)N(C)C[C@H]1Oc2c(NC(=O)Nc3ccc(C(F)(F)F)cc3)cccc2C(=O)N([C@H](C)CO)C[C@@H]1C | . | -15 | -13 | . | . | 15&1 | 0 | 5
CCOC(=O)CN(C(=O)CSc1nnc(COc2ccc(OC)cc2)n1CC)c1ccccc1 | -2 | -21 | 15 | i | 18 | -26 | 8 | -5
COc1ccc(C2CCCN2C(=S)Nc2cccc(Cl)c2)cc1OC (stereo unspecified) | 7 | -2 | 0 | i | 4 | -28 | -9 | -12
O=C(Nc1ccc(NC(=O)C2CCCCC2)nc1)c1cccs1 | -2 | 12 | -22 | i | 14 | . | 4 | 2
N#Cc1ccccc1OCC(=O)NNC(=O)CCNC(=O)c1ccccc1 | . | -9 | . | . | . | -2 | 0 | 4
c1cncc(CNCc2ccco2)c1 | -3 | 7 | 8 | i | -3 | -2 | -4 | 0
Cn1c(=O)c2cc(S(=O)(=O)NCCC(=O)Nc3ccc(F)cc3F)ccc2n(C)c1=O | -3 | 4 | -1 | i | -6 | . | 0 | 2
CC(C)C1N=C2c3ccccc3N=C(SCC(=O)c3ccc(O)c(O)c3)N2C1=O (stereo unspecified) | -5 | 27 | . | i | 12 | -1 | 0 | -6
O=C(COc1ccc(F)c(Cl)c1)c1ccc[nH]1 | 16 | 5 | -206 | i | 15 | -6 | -1 | 0
COc1ccc(Cc2nnc(SCC(=O)N3CCc4ccccc4C3)o2)cc1 | -2 | -15 | . | i | 0 | -5 | 0 | 0
CN(C)S(=O)(=O)c1cccc(NC(=O)c2cc3c(cc2Cl)N2CCCCCC2=NS3(=O)=O)c1 | -3 | 7 | -1 | i | 2 | . | 2 | -1
O=C1c2ccc([N+](=O)[O-])cc2C(=O)N1CNc1ccccn1 | 3 | 5 | 2 | i | -12 | . | -4 | 4
CCOc1ccc(N(C)S(=O)(=O)c2cc(-c3cc(C)no3)ccc2C)cc1 | 8 | 57 | 19 | i | 2 | 4 | -10 | -21
O=C(Nc1nccs1)c1ccc([N+](=O)[O-])cc1Cl | -5 | -7 | -34 | i | 2 | -7 | 1 | -6
Cc1[nH]nc2nc3c(c(OC(=O)c4ccccc4)c12)c(=O)n(C)c(=O)n3C | -3 | -8 | . | i | 4 | . | . | .
Cc1cccc(C)c1NC(=O)C(c1ccccc1)N1CCN(C/C=C/c2ccccc2)CC1 (stereo unspecified) | . | . | -1 | . | . | -11 | 16 | -4
O=C(Nc1cccc(S(=O)(=O)Nc2ccccc2Cl)c1)c1ccc(Cl)nc1 | -6 | 15 | . | i | 10 | -10 | 18 | -19
O=c1c2ccccc2nc2n1C1(CCCCC1)Cc1ccccc1-2 | -10 | 76* | . | i | -6 | -15 | 3 | -6
Nc1cc(N)nc(SCc2ccc(Cl)cc2)n1 | 9 | -13 | -4 | i | -4 | -17 | -1 | -1
CCCC(CCC)C(=O)Nc1c[nH]c(=O)[nH]c1=O | 0 | -13 | i | i | 1 | -5 | -1 | 2
O=C(O)c1ccc(Cl)c(S(=O)(=O)N(Cc2ccccc2)c2ccc(Cl)cc2)c1 | 1 | 66 | 31 | i | 7 | -1 | 1 | -3
O=C(OCC(=O)N1CCN(c2ccccc2)CC1)c1ncc(Cl)c(Cl)c1Cl | . | -7 | 3 | i | . | . | -3 | 0
CC1CCN(C(=O)COC(=O)CCC(=O)c2cccs2)CC1 | . | . | -13 | . | . | -9 | 0 | -1
CCOC(=O)c1ccc(N(CC(=O)NCC2CCCO2)C(=O)CCC(=O)Nc2cc(C)on2)cc1 (stereo unspecified) | -9 | -7 | -24 | i | 0 | -1 | 0 | 1
New compounds follow
SMILES | eIF4H FP inh | CSC inhib | Env fusion inh | Rce1 inh | PABP FP inh | Yeast UUG start | MT1-MMP act inh | MT1-MMP act inh RFP | others
Cc1ccsc1C(=O)c1sccc1C | -1 | -11 | -5 | i | -8 | -2 | 0 | -5
O=C(NCc1ccncc1)c1ccc(N2CCCC2)c([N+](=O)[O-])c1 | 105 | -16 | 24 | i | 3 | . | 1 | -14 | eIF4H FP inh retest=48;PABP FP inh retest=23
C=C(Br)Cn1cnc2ccccc21 | 3 | 11 | 12 | i | 6 | . | -3 | -1
Cc1ccc(S(=O)(=O)N(C)C)cc1NC(=O)CSc1nc2ccccc2c(=O)n1CC1CCCO1 (stereo unspecified) | -7 | 2 | -242 | i | 5 | -17 | -5 | 4
O=C(O)C1C2CCC(O2)C1C(=O)NCCC1=CCCCC1 (stereo unspecified) | 3 | -2 | . | i | -2 | 1 | 3 | 6
COC(=O)c1cc(-c2ccc(C)cc2)n[nH]1 | -5 | 7 | -77 | i | 1 | . | 1 | 4
O=C(CSc1nnc(-c2ccco2)o1)c1ccc(F)c(F)c1 | -10 | 6 | 18 | i | 4 | -12 | 0 | -1
[O-]C1=N/[N+](=C/c2ccccc2Cl)CC1 | 6 | -10 | . | i | -7 | -11 | 7 | 4
CCCCN1C(=O)c2ccc(C(=O)NCCN3C(=O)S/C(=C\c4cccnc4)C3=O)cc2C1=O | 10 | . | -26 | i | -5 | . | -4 | -3
COc1ccc([C@@H]2[C@@H]3C(=O)N(C(C)(C)C)C(=O)[C@@H]3[C@]3(Cc4ccccc4)C(=O)N(c4ccc(C(F)(F)F)cc4)C(=O)N23)cc1 | -4 | 5 | 42 | i | 6 | 5 | -1 | -6
O=C(CN1CCN(c2ccccc2F)CC1)c1c[nH]c2ccc(F)cc12 | 6 | 16 | -307 | i | 18 | . | 22 | 64
Cc1cccc(OCCn2nnc3ccccc32)c1C | -4 | -3 | -34 | i | 6 | -12 | 11 | -13
CSc1nc(N)nc2c1ncn2CC(=O)NCCNc1ccc([N+](=O)[O-])cn1 | . | . | -33 | . | . | -5 | 1 | 3
O=C(Nc1ccc(F)cc1)c1cccc(NC(=O)C2C3CC4OC(=O)C2C4C3)c1 (stereo unspecified) | 6 | 4 | -17 | i | -8 | -9 | 0 | -6
COc1cccc(N2C(=O)CC(N3CCN(S(=O)(=O)c4ccccc4[N+](=O)[O-])CC3)C2=O)c1 (stereo unspecified) | . | . | 2 | . | . | 21 | -2 | 3
CC(OC(=O)CCN=C1NS(=O)(=O)c2ccccc21)C(=O)N(C)c1ccccc1 (stereo unspecified) | . | -16 | 9 | i | . | . | 0 | 0
CN(C(=O)COc1cc(C(F)(F)F)nn1C)c1ccccc1 | -11 | -5 | 12 | i | 0 | . | 0 | -1
CS(=O)(=O)N1N=C(c2ccc3nccnc3c2)CC1c1ccccc1 (stereo unspecified) | 0 | 15 | . | i | -12 | -9 | -4 | -2
O=C(CSc1nnnn1-c1ccccc1)N1CCc2ccccc21 | -6 | -11 | . | i | 26 | -7 | 1 | -1
Cn1nccc1NC(=O)Nc1ccc(Cl)cc1 | 0 | 22 | -122 | i | 6 | . | 2 | 0
CC(OC(=O)c1cccc(S(=O)(=O)N(C)C)c1)C(=O)NCC(=O)Nc1ccc(F)c(F)c1F (stereo unspecified) | . | . | i | . | . | 0 | 1 | 1
Cc1ccc(NC(=S)Nc2ccc(F)cc2)cc1C | 0 | -7 | -14 | i | 3 | -29 | 6 | -6
N#Cc1cc2cc3c(cc2nc1SCC(=O)OC1CCCCC1)OCO3 | 4 | 17 | -9 | i | -8 | -10 | -9 | -7
CC(=O)NNc1nc(-c2ccccc2)c2cc(Br)ccc2n1 | 3 | -8 | -21 | i | 5 | -2 | 1 | -10
C[C@H](CO)N1C[C@H](C)[C@@H](CN(C)Cc2ccc(C(=O)O)cc2)Oc2ccc(NC(=O)Cn3cnnn3)cc2C1=O | . | . | 7 | . | . | -9&-16 | 1 | 4
New compounds follow:
SMILES | eIF4H FP inh | CSC inhib | Env fusion inh | Rce1 inh | PABP FP inh | Yeast UUG start | MT1-MMP act inh | MT1-MMP act inh RFP | others
CCOC(=O)N/N=C\c1ccc(-c2cccc(C(F)(F)F)c2)o1 | 6 | . | -2 | i | -7 | . | -1 | -1
CC(C)CCNC(=O)CN(Cc1ccccc1)C(=O)CCC(=O)Nc1ccccn1 | -8 | -7 | 7 | . | -5 | -7 | 3 | 3
COc1ccc(C2CC(c3cccs3)=NN2c2nc(-c3ccccc3)cs2)cc1OC (stereo unspecified) | 35 | -19 | . | i | 14 | -18 | 11 | 0
CCOC(=O)C1CCN(C(=O)c2c(-c3c(F)cccc3Cl)noc2C)CC1 | 3 | . | -116 | i | -6 | -16 | 5 | 4
O=C1CC(C(=O)NC2CCCCC2)C(c2ccccc2)O1 (stereo unspecified) | -5 | -1 | . | i | 5 | 12 | 2 | 4
O=C(NCCc1ccccc1Cl)C1CCC(=O)N(C2CCCCCC2)C1 (stereo unspecified) | -6 | -15 | -7 | i | 4 | -18 | 4 | 2
CC1(c2ccncc2)Nc2ccccc2-c2nc3ccccc3n21 (stereo unspecified) | -11 | -10 | -48 | + | 0 | 3 | 10 | 5
O=C(O)COc1nsnc1N1CCOCC1 | -5 | -16 | -42 | i | 6 | -51 | 2 | 9
COc1ccc(C2=NOC(CN3C(=O)c4ccccc4S3(=O)=O)C2)cc1 (stereo unspecified) | -5 | -6 | . | i | -10 | -30 | 3 | -2
Cc1ccc(CN2C(=O)c3ccccc3C2C(=O)NCc2cccnc2)cc1 (stereo unspecified) | 4 | 7 | -28 | i | 1 | 3 | -1 | 5
COc1ccc(NC(=O)CSc2nc(N)c3cc4c(nc3n2)CCCC4)cc1 | -4 | -4 | -34 | i | -9 | -6 | 14 | -6
O=C(COc1ccccc1)N1CCN(S(=O)(=O)Cc2ccccc2)CC1 | -18 | 8 | -11 | i | 1 | -16 | 1 | 2
COc1ccc(-c2nc(Cn3c(SCc4ccc(F)cc4)nc4ccncc43)c(C)o2)cc1OC | -18 | 16 | ? | i | -16 | -17 | 8 | -4
CCOC(=O)N1CC=C2C(C#N)=C(N)C(C#N)(C#N)[C@H](c3ccc(OC(C)C)c(OCC)c3)[C@H]2C1 | 14 | -19 | . | i | 20 | -2 | -13 | 1
S=C1SCN(Cc2cccs2)CN1Cc1cccs1 | . | . | 6 | . | . | -34 | -2 | -1
COc1cccc(OC)c1C(=O)N=c1sc2cc(S(C)(=O)=O)ccc2n1C | 7 | 6 | 5 | i | 5 | . | 1 | 2
O=S(=O)(N=C(NS(=O)(=O)c1ccc(Cl)cc1)c1ccccc1)c1ccc(Cl)cc1 | . | -9 | 1 | . | . | -13 | -1 | 2
CCCn1cc(CN2CCC(Oc3ccc(C(=O)N4CCCC4)cc3)CC2)c(C)n1 | 2 | -11 | 2 | i | -5 | -14 | 0 | -3
Cc1cccc(NC(=O)c2cc([N+](=O)[O-])ccc2N2CCCCC2)n1 | -14 | . | 14 | i | -3 | 8 | 3 | -6
O=S(=O)(NCc1ccc2c(c1)OCO2)c1cnc[nH]1 | -4 | -10 | 14 | i | -8 | -3 | 0 | 4
